LASV entry inh: Lassa virus entry inhibition; Lassa virus pseudotype entry inhibition, cell reporter; control for the full effect not named in the record; Potency, µM (doses to about 37.9 µM), for inactives: at the top dose activity change, negative = inhibition, most hits filed as inhibitors; 300,000 tested, 1.2% active; AID 540256; active means well fitted inhibition curve with a large enough effect; inconclusive means small, poorly fitted or top-dose-only effect, or effect the other way; inactive means flat fitted curve, though single readings scatter; tested in HEK293 cells; also: % is scaled to controls: 0 for no effect and ±100 for the full control effect; nearly all actives have a fitted effect of over 50% in size; luciferase read-out
MARV entry inh: inhibitors of Marburg virus binding or cell entry. Marburg virus pseudotyped entry inhibition, cell reporter; control for the full effect not named in the record; about a third of the inactives were read at about 46 µM. Potency, µM (doses to about 37.8 µM), without a hit: top-dose activity change, negative = inhibition, usual class: inhibitors. 300,000 tested, 1.8% active. AID 540276; active = well fitted inhibition curve with a large enough effect; inconclusive = small, poorly fitted or top-dose-only effect, or effect the other way; inactive = flat fitted curve, though single readings scatter; tested in HEK293 cells; about a fifth of its hits are not listed in these tables; also: % is scaled to controls: 0 for no effect and ±100 for the full control effect; luciferase read-out
Cruzain inh noDet: cruzain (T. cruzi) inhibition without detergent. purified cruzain, Z-FR-AMC fluorescence, no detergent. P25779. Potency, µM, for inactives: max response, negative = inhibition, hits mostly inhibitors. AID 1476. 200,000 tested, 2.3% active;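 also: plate controls were enzyme without inhibitor for no effect and buffer without enzyme for full effect; nearly all actives have a fitted effect of over 40% in size; top concentration of the series not given in the record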
Target sequence (P25779 123-467 limits assumed): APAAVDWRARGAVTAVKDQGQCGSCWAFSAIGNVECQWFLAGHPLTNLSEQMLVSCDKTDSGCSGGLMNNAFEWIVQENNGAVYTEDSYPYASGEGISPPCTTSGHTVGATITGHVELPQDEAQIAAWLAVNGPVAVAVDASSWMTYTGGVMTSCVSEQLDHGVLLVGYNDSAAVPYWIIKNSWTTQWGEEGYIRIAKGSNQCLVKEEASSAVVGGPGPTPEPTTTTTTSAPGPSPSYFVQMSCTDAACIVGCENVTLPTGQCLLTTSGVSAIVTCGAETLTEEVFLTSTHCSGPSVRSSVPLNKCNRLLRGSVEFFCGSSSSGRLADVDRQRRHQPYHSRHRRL
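Detergent-free condition (0.00005% Triton X-100) in acetate buffer pH 5.5 with DTT. 1.5 nM enzyme and compound were pre-mixed 15 min, then 2 uM Z-FR-AMC substrate added; reaction progress from fluorescence change between first and third reads (60 s).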
2A StopGo: FMDV 2A StopGo reporter, luciferase signal. Potency, µM (titrated, usually from 57.9 µM), for the others: at the highest dose signal change, negative = less light. human cells with a luciferase reporter of 2A StopGo recoding; control for the full effect not named in the record. 410,000 tested, 1.2% active; active = well fitted falling curve with a large enough effect; inconclusive = small, poorly fitted or top-dose-only effect; inactive = no such curve, though single readings can be large or run the other way; tested in HEK293T cells; also: % is scaled to controls: 0 for no effect and ±100 for the full control effect; nearly all actives have a fitted effect of over 45% in size; luciferase light after 4 h
SARS PLpro yeast: inhibitors of SARS-CoV papain-like protease in yeast; S. cerevisiae expressing SARS-CoV PLpro, growth rescue; control for the full effect not named in the record; Potency, µM (titrated, usually from 32.9 µM), for inactives: top-dose activity, positive = growth rescue; 330,000 tested, 0.19% active; AID 485353; active means well fitted rising curve with a large enough effect; inconclusive means small, poorly fitted or top-dose-only effect; inactive means no such curve, though single readings can be large or run the other way; also: 0% is about no effect; nearly all actives have a fitted effect of over 55% in size; growth read by luminescence after 48 h
RE007 growth inh: less growth of the S. pombe RE007 Vpr strain. S. pombe RE007 Vpr strain, BacTiter-Glo ATP luminescence, 24 h; control for the full effect not named in the record. Potency, µM (series often up to 92.2 µM), for inactives: at the top dose activity change, negative = less growth. AID 651644. 360,000 tested, 0.21% active; active = well fitted falling curve with a large enough effect; inconclusive = small, poorly fitted or top-dose-only effect; inactive = no such curve, though single readings can be large or run the other way;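 also: % is scaled to controls: 0 for no effect and ±100 for the full control effect; nearly all actives have a fitted effect of over 50% in size; the assay follows cell death caused by Vpr and the record does not say whether a fall means rescue or toxicity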
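Fission yeast RE007 carrying one integrated HIV-1 vpr copy, seeded at OD 0.01 in PMG+AL medium with 23 nL pinned compound. Grown 24 h at 30 degrees; viability read by BacTiter-Glo luminescence after 5 min.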
Cruzain inh Det: cruzain (T. cruzi) inhibition with detergent | purified cruzain, Z-FR-AMC fluorescence, 0.01% Triton | Potency, µM, inactives show max response, negative = inhibition, most hits filed as inhibitors | 200,000 tested, 0.43% active;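 also: plate controls were neutral wells for no effect and buffer without enzyme for full effect; nearly all actives have a fitted effect of over 40% in size; top concentration of the series not given in the record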
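Z-FR-AMC hydrolysis (2 uM substrate) by cruzain (1.5 nM) monitored kinetically at ex 360/em 450 nm after 15 min room-temperature compound exposure; 0.01% Triton X-100, pH 5.5, 5 mM DTT.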
NS1 function inh: inhibitors of influenza NS1 protein function; S. cerevisiae slowed by influenza A NS1, growth recovery by OD600; Potency, µM (titrated, usually from 46.1 µM), inactives show at the highest dose activity, positive = more growth; 270,000 tested, 0.4% active; AID 2326; active means well fitted rising curve with a large enough effect; inconclusive means small, poorly fitted or top-dose-only effect; inactive means no such curve, though single readings can be large or run the other way; also: nearly all actives have a fitted effect of over 50% in size
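Recovery from NS1-induced slow growth read by OD600 in budding yeast switched to galactose assay medium (pH 6.0, -URA) at 1:100 dilution. Compound 23 nl per well; the matching strain lacking NS1 serves as control.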
* hit, by the source's call; ? = inconclusive; . = no result given; & = joins results of further samples; [ ] = remark or other dose. Unless noted, calls follow the shape of the dose curve; as a rule, active = well fitted curve in the direction sought with a large enough effect; inconclusive = small, poorly fitted or top-dose-only effect, or another doubt; inactive = no such curve, though single readings can be large; an effect the other way counts as inactive or inconclusive. Potency is read from the fitted curve at half-maximal effect.

SMILES	LASV entry inh	MARV entry inh	Cruzain inh noDet	2A StopGo	SARS PLpro yeast	RE007 growth inh	Cruzain inh Det	NS1 function inh
O=[N+]([O-])c1cccc(/C=N/Nc2nnc(-c3ccccc3)c(-c3ccccc3)n2)c1	18%	?	7.9µM*	-16%	-14%	34%	-5.4%	8%
Cc1ccc(NC(=O)Nc2cccc(C)n2)c(C)c1	.	.	.	20%	-1%	-4%	.	4%
O=C(NCC(=O)N(Cc1ccco1)C(C(=O)NC1CCCC1)c1cccnc1)c1cccs1 (stereo not drawn)	6%	?	2%	15%	3%	6%	-0.8%	-2%
Cc1ccc(C(=O)NCC(c2ccc3c(c2)OCO3)N2CCOCC2)cc1C (stereo not drawn)	19%[46.1 µM]	.	7%	-14%	.	.	1.4%	.
Cc1c(-c2ccccc2)[n+](=O)c(-c2ccco2)c(C)n1[O-]	-21%	?	-10%	35%[activator]	3%	6%	2.4%	1%
O=C(CSC1=NCCS1)N1CCCC1	7%	0%	4%	13%	-1%	1%	-0.9%	1%
CCN1C(=O)c2ccccc2S(=O)(=O)c2ccc(C(=O)NCc3ccc(F)cc3)cc21	?	2%[46.1 µM]	-6%	-2%	.	.	0.6%	.
COc1ccc(CCNC(=O)c2oc3ccc(S(=O)(=O)N4CCOCC4)cc3c2C)cc1OC	?	?	?	?	2%	11%	-5.3%	-3%
COC(=O)[C@@]1(Cc2ccc(F)cc2)[C@H]2c3cc(C(=O)N4CCCC4)n(Cc4ccc(Cl)c(C(F)(F)F)c4)c3C[C@H]2CN1C(=O)c1ccccc1	.	.	5%	-25%	.	-16%	0.9%	.
CC(C)N(Cc1ccccc1)C(=O)COC(=O)c1cnc(Cl)c(Cl)c1	-10%	?	.	-25%	-7%	34%	.	.
Cc1ccc(-c2ccc(=O)n(CC(=O)NCCN3C(C)CCCC3C)n2)cc1 (stereo not drawn)	-6%	-27%	1%	.	-5%	-5%	2.0%	-2%
Cc1c(C)n(Cc2ccccc2)c2ccc(C(=O)NC(C)c3ccccc3)cc12 (stereo not drawn)	?	.	?	-15%	.	.	-2.5%	.

Additional results.
SMILES	LASV entry inh	MARV entry inh	Cruzain inh noDet	2A StopGo	SARS PLpro yeast	RE007 growth inh	Cruzain inh Det	NS1 function inh
COc1ccccc1CNC(=O)CCCNS(=O)(=O)c1cccc2nsnc12	-11%	-3%	-3%	-7%	1%	-5%	-3.8%	0%
Cc1ccccc1-n1nc(-c2ccc(N)cc2)cc1N	11%	-15%[46.1 µM]	-2%	6%	?	-2%	2.4%	-5%
CCN(CC)C(=O)CN1CCC(c2nc3cc(C)c(C)cc3[nH]2)CC1	21%	8%	.	-3%	7%	-4%	.	-4%
CCOC(=O)N1CCN(C(=O)c2ccc(N3CC4CC(C3)c3cccc(=O)n3C4)c(NC(=O)c3ccc(F)cc3)c2)CC1 (stereo not drawn)	.	.	.	-5%	2%	-22%	.	3%
O=C(CSc1ccc(Cl)cc1)Nc1nnc(-c2ccco2)o1	-9%	1%	.	1%	-11%	-19%	.	.
Cc1ccc(S(=O)(=O)CCC(=O)Nc2sccc2C(N)=O)cc1	-2%[46.1 µM]	8%[46.1 µM]	.	9%	0%	-10%	.	.
O=C(COC(=O)c1cc[n+]([O-])cc1)NCC12CC3CC(CC(C3)C1)C2	3%	24%[46.1 µM]	-7%	-24%	3%	17%	3.0%	13%
O=[N+]([O-])c1ccc(NCCCN2CCOCC2)nc1	4%	4%	.	-1%	1%	1%	.	-5%
CC(=O)OC12CC3CC(C1)C(=NO)C(C3)C2	0%	?	-9%	-9%	-1%	20%	3.6%	6%
CCOC(=O)N1CCC(n2c(SCC(=O)c3ccccc3)nc3ccsc3c2=O)CC1	-6%	?	-1%	14%	2%	-2%	5.6%	-5%
Cc1ccc2c(c1)N(C(=O)CCC(=O)NCc1cccs1)CC(C)O2 (stereo not drawn)	22%[46.1 µM]	-3%[46.1 µM]	18%	-15%	.	.	-1.7%	.
Cc1ccc2nc(N3CCN(CCO)CC3)nc(-c3ccccc3)c2c1	.	.	.	-30%	-2%	5%	.	-1%

Further entries.
SMILES	LASV entry inh	MARV entry inh	Cruzain inh noDet	2A StopGo	SARS PLpro yeast	RE007 growth inh	Cruzain inh Det	NS1 function inh
CCCC(C)C1(CC)C(=O)NC(=Nc2ccc(OC)cc2)NC1=O (stereo not drawn)	18%	2%	-17%	-20%	7%	15%	-3.8%	-2%
Cc1cccc(-n2cnc(C(=O)N3CCN(C)CC3)c2)n1	?	1%[46.1 µM]	.	12%	0%	1%	.	3%
CC(=O)c1ccc(NC(=O)CSc2nccn2CCc2ccccc2)cc1	?	-20%	-10%	34%[activator]	-2%	-1%	-0.1%	2%
c1ccc2c(NC3C4CC5CC(C4)CC3C5)nc(N3CCOCC3)nc2c1 (stereo not drawn)	-21%	?	.	25µM*	-1%	-9%	.	-37%
COc1ccc(-c2nnc(SCC(=O)N(C)C3CCCCC3)o2)cc1OC	-8%[46.1 µM]	3%[46.1 µM]	11%	?	.	.	-13%	.
O=C(Nc1ccc2c(c1)OCO2)Nc1ccc(F)cc1F	.	.	.	39%[activator]	0%	-1%	.	7%
O=C1c2ccc(Oc3ccc([N+](=O)[O-])cc3)cc2C(=O)N1CCCO	8%[46.1 µM]	4%[46.1 µM]	.	0%	2%	-17%	.	2%
OCCCNc1nc(-c2ccc(Cl)cc2)nnc1-c1ccccc1	4%	?	4%	0%	-2%	-10%	-3.0%	-38%
Cc1cccc(C(=O)N2CC(=O)Nc3ccc(F)cc3C2c2ccc(F)cc2)c1 (stereo not drawn)	-15%[46.1 µM]	-20%[46.1 µM]	.	-5%	0%	-13%	.	4%
CN(CCCC(=O)Nc1ccccc1)S(=O)(=O)c1ccc(Cl)cc1	.	.	.	-21%	7%	11%	.	-11%
CC1CCCC(C)N1C(=O)COC(=O)C1CCN(S(=O)(=O)c2c(Cl)cccc2Cl)CC1 (stereo not drawn)	-3%	3%	.	-18%	1%	6%	.	.
O=C1NC(=O)C(c2ccccc2)N1 (stereo not drawn)	2%	11%	.	-2%	.	22%	.	.

Additional structures follow.
SMILES	LASV entry inh	MARV entry inh	Cruzain inh noDet	2A StopGo	SARS PLpro yeast	RE007 growth inh	Cruzain inh Det	NS1 function inh
c1ccc(CCNc2ncnc3c2nnn3Cc2ccccc2)cc1	?	3%	-3%	9%	2%	-4%	-1.0%	0%
CCCc1nc2ccc(N)cc2c(=O)n1Cc1ccccc1Cl	11%	17%	.	16%	-15%	-2%	.	-66%
COc1ccc(N2C(=O)/C(=C3/C=CC=CN3C)SC2=S)cc1	4%	?	-4%	14%	0%	0%	-12%	19%
CC(NS(=O)(=O)c1ccc(Br)cc1)C(=O)NCCc1ccccc1 (stereo not drawn)	12%	26%	4%	-19%	-2%	-18%	-2.7%	-5%
CN(C)CCCCNCCCNC(=O)/C=N\O	24%	12%	-1%	.	-3%	7%	1.4%	4%
O=C(CSc1ncnc2c1cnn2-c1ccccc1)NC1CCCC1	-30%	-23%	.	-9%	2%	-19%	.	.
CCN1C(=NCc2ccco2)N[C@@H](c2cccc(F)c2)C(C(=O)OC)=C1C	.	.	.	-14%	-2%&-5%	-7%	.	7%&-7%
CCCC12CN3CCN(CC(C3)/C1=N\NC(=O)c1ccc(C(C)(C)C)cc1)C2	-2%	?	-6%	-14%	-4%	18%	3.3%	24%
CN(CC(=O)O)S(=O)(=O)c1cccs1	13%	10%	2%	-3%	9%	7%	8.1%	-6%
COc1ccccc1N1CCN(C(=O)CSc2n[nH]c(-c3ccccc3)n2)CC1	-3%[46.1 µM]	.	9%	-30%	.	.	2.6%	.
Cc1ccn2cc(-c3cccc(NC(=O)c4cccs4)c3)nc2c1	-13%	?	.	14%	-6%	-2%	.	.
C=CCn1c(SCC(=O)Nc2ccc(S(N)(=O)=O)cc2)nnc1-c1cnccn1	-2%[46.1 µM]	?	.	27%	7%	-3%	.	3%

Next section
SMILES	LASV entry inh	MARV entry inh	Cruzain inh noDet	2A StopGo	SARS PLpro yeast	RE007 growth inh	Cruzain inh Det	NS1 function inh
Cc1ccn2c(=O)c(C(=O)NCc3ccccc3Cl)c(O)nc2c1	.	?	-1%	-15%	.	.	-0.2%	.
Cc1ccc(N2CCN(C(=O)c3c(C)oc4ncnc(N5CCCCC5)c34)CC2)c(C)c1	-20%[46.1 µM]	.	13%	0%	.	.	-0.4%	.
CCOc1ccc2[nH]c(=O)c(CN(CCc3ccccc3)C(=O)N3CCCC3)cc2c1	-19%	5%	3%	-5%	2%	1%	-12%	15%
CCc1ccccc1OCCCCN1CCCC1	?	?	0%	-13%	-1%	-1%	4.9%	3%
C=CCn1c(-c2c[nH]c3ccccc23)n[nH]c1=S	-9%	-4%[46.1 µM]	-9%	-17%	2%	-2%	0.3%	?
COc1cccc(/C=C2\SC(=O)N(CC(=O)NC3C=CS(=O)(=O)C3)C2=O)c1 (stereo not drawn)	.	.	.	-29%	0%	-6%	.	0%
O=C(CCCOc1ccccc1)N1CCc2ccccc2C1	-13%	?	-12%	12%	-3%	-17%	-3.9%	-13%
CC(=O)CSc1nnc2[nH]c(=O)cc(N)n12	16%[46.1 µM]	.	?	13%	.	.	1.5%	.
CCN(CC(=O)Nc1c(F)cccc1F)C(=O)c1ccc2ccccc2n1	-17%	4%[46.1 µM]	.	-14%	-2%	4%	.	.
c1ccc2c(c1)OC[C@@H](C1=NCCN1)O2	.	-37%&-37%&-37%	0%&-6%	?	.	.	-0.6%&-8.7%	.
COC(=O)c1ccc(NC(=O)CCc2nnc3ccc(NCc4ccco4)nn23)cc1	0%[46.1 µM]	13%[46.1 µM]	.	-2%	3%	8%	.	0%
CCOc1ccccc1OCCC(=O)NNC(=O)Cn1nc(C)cc1C	4%	-13%[46.1 µM]	.	-6%	0%	-9%	.	.
OC1(c2cccc(C(F)(F)F)c2)CCN(c2ncnc3c2[nH]c2ccccc23)CC1	15%	?	-3%	28µM*	2%	15%	3.1%	-6%
COc1cc(C2NC(=O)C(C#N)=C(S)N2c2ccccc2)ccc1OC(C)C (stereo not drawn)	9%	21%	-19%	-9%	12%	-3%	-8.1%	11%
Cc1[nH]ncc1-c1ccccc1Cl	.	.	.	4%	1%	15%	.	-4%

Screens as filed in PubChem BioAssay.
